ATG4B inhibitor: inhibitors of human ATG4B cysteine protease | Q9Y4P1 | ATG4B cleavage of LC3-PLA2, NBD-HPC fluorescence, 1 h | inhibition, % at 8.33 µM | hit rate 0.51% among 340,000; in the data active = inhibition above about 40%
Target sequence (Q9Y4P1 whole entry, looked up): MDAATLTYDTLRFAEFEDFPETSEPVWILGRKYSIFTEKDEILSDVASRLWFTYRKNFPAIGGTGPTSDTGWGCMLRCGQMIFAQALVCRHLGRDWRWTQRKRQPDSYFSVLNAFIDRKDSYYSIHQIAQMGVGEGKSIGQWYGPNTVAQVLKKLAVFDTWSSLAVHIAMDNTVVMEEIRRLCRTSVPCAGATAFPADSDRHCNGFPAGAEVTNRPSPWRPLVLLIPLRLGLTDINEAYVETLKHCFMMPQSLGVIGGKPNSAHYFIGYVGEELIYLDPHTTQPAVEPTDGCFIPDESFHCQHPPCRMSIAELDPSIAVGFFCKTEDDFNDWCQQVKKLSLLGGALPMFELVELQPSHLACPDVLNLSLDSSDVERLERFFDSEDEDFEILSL
NLRP3 yeast inh: blocks the NALP3 inflammasome reconstituted in yeast | hit rate 0.39% among 330,000 | inhibition, % at 10 µM | Yeast reconstituted NLRP3/ASC/caspase-1, beta-gal luminescence, 24 h | AID 2825;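 active = inhibition of 50% or more; inactive = inhibition below 50%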;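 also: plate controls were induced DMSO wells for no effect and uninduced yeast grown without galactose for full effect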
mIAP inh: blocks mouse intestinal alkaline phosphatase; purified mouse IAP, CDP-Star luminescence, 30 min; inhibition, % at 10 µM; hit rate 0.2% among 330,000; AID 2806;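 active = inhibition of at least 40% at 10 µM in the primary screen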;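 also: plate controls were DMSO with enzyme for no effect and no enzyme wells for full effect; values of inactives mirror those of a sister screen read the other way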
TIM10 inh: growth inhibitors of TIM10 yeast strain; S. cerevisiae TIM10 strain growth, BacTiter-Glo luminescence, 24 h; inhibition, % at 10 µM; hit rate 1.4% among 330,000; AID 463195;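 active = inhibition of 40% or more at the single tested concentration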;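 also: wild-type TIM10 isogenic control strain grown at permissive 25 °C; 0% = DMSO yeast wells and 100% = minimal medium wells without yeast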
tim10-1 inh: growth inhibitors of tim10-1 mutant yeast; S. cerevisiae tim10-1 ts strain growth, BacTiter-Glo, 24 h; inhibition, % at 20 µM; hit rate 2.2% among 330,000; AID 463190;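 active = inhibition of at least 40%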;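 also: mutant grown at 25 °C; 0% = DMSO wells with yeast and 100% = wells holding no yeast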
mIAP act: mouse IAP activation; muIAP, CDP-Star luminescence, 30 min; stronger effect = higher value; 1 = vehicle-only enzyme signal, 0 = enzyme-free wells; activation factor at 10 µM; hit rate 0.24% among 330,000;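 active = activation factor of at least 2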; also: the source names both 10 and 20 µM as test concentration; values of inactives mirror those of a sister screen read the other way
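Assay system: mouse IAP enzyme / Compound: DMSO-dissolved test compounds / Timing: 30 min, room temperature / Measured by: luminescence from enzymatic CDP-Star hydrolysis / Control set: DMSO-only wells, enzyme-free buffer wells as negative control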
hIAP act: increases human intestinal alkaline phosphatase activity | purified human IAP, CDP-Star luminescence, 30 min; stronger effect = higher value; 1 = vehicle-only enzyme, 0 = enzyme-free background | activation factor at 10 µM | hit rate 0.16% among 330,000 | AID 2524;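 active = activation factor of the enzyme at least 2-fold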; also: the source names both 10 and 20 µM as test concentration; values of inactives mirror those of a sister screen read the other way
Target sequence (P09923 whole entry, looked up): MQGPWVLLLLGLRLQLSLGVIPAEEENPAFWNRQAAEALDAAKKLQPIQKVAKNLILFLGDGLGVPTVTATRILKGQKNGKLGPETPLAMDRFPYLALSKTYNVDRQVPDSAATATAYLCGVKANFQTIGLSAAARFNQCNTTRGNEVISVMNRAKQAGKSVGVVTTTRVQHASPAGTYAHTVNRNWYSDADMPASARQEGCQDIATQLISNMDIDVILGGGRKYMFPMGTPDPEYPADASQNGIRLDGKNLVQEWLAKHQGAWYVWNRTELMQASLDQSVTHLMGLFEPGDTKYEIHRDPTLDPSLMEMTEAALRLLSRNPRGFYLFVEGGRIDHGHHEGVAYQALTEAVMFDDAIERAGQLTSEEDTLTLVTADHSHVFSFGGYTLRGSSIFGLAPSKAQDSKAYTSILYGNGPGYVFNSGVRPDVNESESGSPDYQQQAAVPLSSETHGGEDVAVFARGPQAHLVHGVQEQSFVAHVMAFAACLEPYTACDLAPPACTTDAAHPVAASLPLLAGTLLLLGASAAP
hIAP block: blocks human intestinal alkaline phosphatase; P09923; purified IAP, CDP-Star luminescence, 30 min; inhibition, % at 10 µM; hit rate 0.12% among 330,000; AID 2544;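 active = inhibition reaching a set limit with compound at 10 µM in the primary screen, cut at about 35% in these data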;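 also: plate controls were DMSO wells with enzyme for no effect and no-enzyme buffer wells for full effect; values of inactives mirror those of a sister screen read the other way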
* hit, by the source's call; . = no result given. Only part of the results is shown; the hit share may differ from the screen's.

Key to letters: A = ATG4B inhibitor; B = NLRP3 yeast inh; C = mIAP inh; D = TIM10 inh; E = tim10-1 inh; F = mIAP act; G = hIAP act; H = hIAP block
1: CCCn1nc(NC(=O)c2cccs2)c2cc3cc(OC)ccc3nc21
  A: 3; B: 33; C: 8; D: 25; E: 29; F: 0.93; G: 0.85; H: 14

2: COc1ccc(N2CCN(c3ncnc4nc[nH]c34)CC2)cc1
  A: 9; B: 26; C: -1; D: -7; E: 18; F: 1; G: 1.3; H: -29

3: COc1ccc2[nH]c(=O)c(CN(Cc3nnnn3Cc3ccc(F)cc3)CC3CCCO3)cc2c1 (stereo not drawn)
  A: -1; B: -2; C: 1; D: -2; E: 21; F: 0.99; G: 1.3; H: -26

4: COc1cccc2cc(C(=O)N3CCN(C45CC6CC(CC(C6)C4)C5)CC3)c(=O)oc12
  A: -10; B: 17; C: -6; D: 9; E: 13; F: 1.1; G: 0.91; H: 9

5: CCOC(=O)CSc1nc2cc(C)cc(C)c2cc1C#N
  A: -9; B: 10; C: 11; D: 5; E: 17; F: 0.89; G: 1; H: 0

6: COCCN1C=C(C(=O)OC)C(c2ccc(OC)c(OC)c2)C(C(=O)OC)=C1
  A: 5; B: 5; C: 2; D: 1; E: -9; F: 0.98; G: 0.95; H: 5

7: O=C(O)c1cc(=O)c2ccccc2[nH]1
  A: -22; B: 12; C: -2; D: -1; E: 7; F: 1; G: 0.94; H: 6

8: CN1CCN(c2nc(-c3ccccc3)c3cc(Cl)ccc3n2)CC1
  A: -4; B: 13; C: 4; D: 37; E: 42*; F: 0.96; G: 0.99; H: 1

9: CCOC(=O)c1[nH]c(=O)[nH]c1COC(=O)c1cc2ccccc2o1
  A: 0; B: 14; C: -15; D: -9; E: -1; F: 1.1; G: 1.2; H: -22

10: COCCOC(=O)C1=C(C)N=c2s/c(=C\c3cccs3)c(=O)n2C1c1cccs1 (stereo not drawn)
  A: -9; B: 3; C: 7; D: 21; E: 15; F: 0.93; G: 0.94; H: 6

11: O=C(NCc1ccco1)c1cnn2c(C(F)(F)F)cc(-c3ccccc3)nc12
  A: -15; B: 16; C: 9; D: 18; E: 4; F: 0.91; G: 1; H: 0

12: Cc1nc2ccc(NC(=O)N3CCSCC3)cc2nc1C
  A: -7; B: 2; C: 2; D: 8; E: 7; F: 0.98; G: 0.87; H: 13

13: Cc1cc(C)c2c(n1)nn1c(NCCCN(C)C)cc(C)nc21
  A: 6; B: 17; C: 1; D: 4; E: 4; F: 0.99; G: 1; H: -2

14: COC(=O)CC(=O)CSc1nc2c(cc1C#N)CCC2
  A: 2; B: 8; C: 0; D: -21; E: -8; F: 1; G: 1; H: -1

15: O=C1Nc2ccc(S(=O)(=O)N3CCOCC3)c3cccc1c23
  A: -8; B: 16; C: 4; D: -3; E: 9; F: 0.95; G: 1.1; H: -8

Two entries from above, set out differently:
Each structure is followed by: ATG4B inhibitor | NLRP3 yeast inh | mIAP inh | TIM10 inh | tim10-1 inh | mIAP act | hIAP act | hIAP block
(4) COc1cccc2cc(C(=O)N3CCN(C45CC6CC(CC(C6)C4)C5)CC3)c(=O)oc12
    -10 | 17 | -6 | 9 | 13 | 1.1 | 0.91 | 9
(5) CCOC(=O)CSc1nc2cc(C)cc(C)c2cc1C#N
    -9 | 10 | 11 | 5 | 17 | 0.89 | 1 | 0

Part of the list above, tab-delimited.
entry	structure	ATG4B inhibitor	NLRP3 yeast inh	mIAP inh	TIM10 inh	tim10-1 inh	mIAP act	hIAP act	hIAP block
1	CCCn1nc(NC(=O)c2cccs2)c2cc3cc(OC)ccc3nc21	3	33	8	25	29	0.93	0.85	14
13	Cc1cc(C)c2c(n1)nn1c(NCCCN(C)C)cc(C)nc21	6	17	1	4	4	0.99	1	-2
5	CCOC(=O)CSc1nc2cc(C)cc(C)c2cc1C#N	-9	10	11	5	17	0.89	1	0
4	COc1cccc2cc(C(=O)N3CCN(C45CC6CC(CC(C6)C4)C5)CC3)c(=O)oc12	-10	17	-6	9	13	1.1	0.91	9
15	O=C1Nc2ccc(S(=O)(=O)N3CCOCC3)c3cccc1c23	-8	16	4	-3	9	0.95	1.1	-8
12	Cc1nc2ccc(NC(=O)N3CCSCC3)cc2nc1C	-7	2	2	8	7	0.98	0.87	13

The list goes on:
Key to letters: A = ATG4B inhibitor; B = NLRP3 yeast inh; C = mIAP inh; D = TIM10 inh; E = tim10-1 inh; F = mIAP act; G = hIAP act; H = hIAP block
16: CN1CCCC1c1cccnc1 (stereo not drawn)
  A: -19; B: 1; C: -20; D: 5; E: 16; F: 1.2; G: 1.1; H: -11

17: COc1ccc(C2=CC(c3ccc(Cl)cc3)n3cnnc3N2)cc1OC (stereo not drawn)
  A: -9; B: 0; C: -4; D: 29; E: 27; F: 1; G: 1; H: -2

18: Cn1c(=O)c2cc(NCc3ccccc3)nnc2n(C)c1=O
  A: 6; B: 16; C: -5; D: 20; E: 19; F: 1; G: 0.8; H: 20

19: COCCCNC(=O)c1c(N)n(-c2cccc(S(N)(=O)=O)c2)c2nc3ccccc3nc12
  A: -26; B: 4; C: 0; D: -11; E: 9; F: 1; G: 1.3; H: -32

20: COc1ccc2nc(N3CCCCC3)c(C#N)cc2c1
  A: 0; B: 0; C: -17; D: 10; E: 3; F: 1.2; G: 0.88; H: 12

21: Cc1ccc(C2NC(=O)NC3=C2CCc2ccccc23)cc1 (stereo not drawn)
  A: 11; B: 0; C: 4; D: 9; E: 14; F: 0.96; G: 0.84; H: 16

22: CN1/C(=C\C(=O)c2cccs2)Sc2ccccc21
  A: -6; B: 62*; C: -2; D: 63*; E: 38; F: 1; G: 0.94; H: 6

23: CCCCc1cc(=O)oc2c(CN(C)C)c(O)ccc12
  A: 3; B: -6; C: 0; D: -3; E: 5; F: 1; G: 0.99; H: 1

24: O=c1oc(-c2cccs2)nc2sc3c(c12)CCC3
  A: -5; B: -5; C: 0; D: 12; E: 6; F: 1; G: 1.2; H: -16

25: Cc1cccc(-n2c(N)c(C(=O)NCCN3CCOCC3)c3nc4ccccc4nc32)c1
  A: -10; B: 26; C: -3; D: 4; E: 24; F: 1; G: 1.2; H: -23

26: CCOc1ccc(C2C=C(c3ccccc3)Nc3nnnn32)cc1 (stereo not drawn)
  A: -8; B: 22; C: -7; D: -17; E: 2; F: 1.1; G: 0.95; H: 5

27: O=c1[nH]c2cc3c(cc2cc1C(c1nnnn1C1CCCCC1)N1CCSCC1)OCCO3 (stereo not drawn)
  A: -11; B: -10; C: 2; D: 10; E: 12; F: 0.97; G: 0.95; H: 5

28: C=CCNc1sc(C(=O)c2cccs2)c(N)c1C#N
  A: -6; B: 5; C: 14; D: 11; E: 23; F: 0.86; G: 1.2; H: -23

29: CCOc1ccc2nc(NCCNC(=O)Nc3cccc(C)c3)c(C#N)cc2c1
  A: -3; B: 0; C: -115; D: 15; E: 27; F: 2.2*; G: 0.88; H: 12

30: Cc1cccn2c(=O)c3cc(C(=O)NC(C)C)c(=N)n(Cc4ccncc4)c3nc12
  A: -7; B: 0; C: 5; D: 10; E: 0; F: 0.95; G: 0.94; H: 6

(listing goes on)
Key to letters: A = ATG4B inhibitor; B = NLRP3 yeast inh; C = mIAP inh; D = TIM10 inh; E = tim10-1 inh; F = mIAP act; G = hIAP act; H = hIAP block
31: N#Cc1c(-c2ccco2)cc(-c2ccc(F)cc2)nc1N
  A: 26; B: 23; C: 9; D: -10; E: 35; F: 0.91; G: 1.2; H: -16

32: Oc1cc(Cl)cc(Cl)c1Cl
  A: -6; B: -16; C: 14; D: 9; E: 22; F: 0.86; G: 1; H: -1

33: CSc1nnc2c(n1)OC(c1ccc(C(=O)O)cc1)N(C(C)=O)c1ccccc1-2 (stereo not drawn)
  A: 5; B: 10; C: 3; D: 4; E: 3; F: 0.97; G: 1; H: 0

34: Cc1nn(C)cc1CN(C)C(=O)c1cc2nc(-c3ccco3)cc(C(F)(F)F)n2n1
  A: -6; B: 9; C: -4; D: 10; E: 25; F: 1; G: 1; H: -1

35: Nc1ccc2ncccc2c1
  A: 12; B: 11; C: 4; D: -1; E: 7; F: 0.96; G: 0.98; H: 2

36: Cc1cc(=O)oc2cc3c(cc12)OCCN3
  A: 2; B: -7; C: -2; D: 14; E: 4; F: 1; G: 1.3; H: -27

37: CCC(=O)Nc1c(C#N)c2nc3ccccc3nc2n1-c1ccccc1C
  A: -7; B: 13; C: -5; D: 2; E: 12; F: 1; G: 0.98; H: 2

38: CCN1C2=C(C(=O)CCC2)C(c2ccc(O)c(Br)c2)C2=C1CCCC2=O
  A: 4; B: 24; C: 8; D: 1; E: 4; F: 0.92; G: 0.9; H: 10

39: Cc1cc(N=Cc2cc(Br)ccc2O)no1
  A: 1; B: 3; C: 6; D: 8; E: 36; F: 0.94; G: 0.89; H: 12

40: Cn1c(=O)c2[nH]c(CNCc3ccccc3Cl)nc2n(C)c1=O
  A: 2; B: 7; C: -1; D: 8; E: 17; F: 1; G: 1.1; H: -8

41: O=C(NCc1cccs1)c1cc2c(s1)-c1ccccc1OC2
  A: -5; B: 19; C: 5; D: 40; E: -11; F: 0.95; G: 1.1; H: -14

42: N=c1c(C(=O)NCc2ccco2)cc2c(=O)n3ccccc3nc2n1Cc1ccc(Cl)cc1
  A: -19; B: 6; C: 1; D: 19; E: 34; F: 0.99; G: 1; H: -2

43: Cc1ccc(N=c2oc3cc(O)ccc3cc2C(N)=O)cc1
  A: 0; B: 8; C: 16; D: 0; E: 9; F: 0.84; G: 1; H: 0

44: COc1cc2c(cc1OC)/C(=C/C(=O)N1CCOCC1)NC(C)(C)C2
  A: -7; B: -1; C: -3; D: -8; E: -7; F: 1; G: 0.89; H: 11

45: NC(=O)c1cc(-c2ccccc2)nc(N2CCCCCC2)n1
  A: -3; B: 17; C: 4; D: 3; E: 20; F: 0.96; G: 1.1; H: -7

Following part
Key to letters: A = ATG4B inhibitor; B = NLRP3 yeast inh; C = mIAP inh; D = TIM10 inh; E = tim10-1 inh; F = mIAP act; G = hIAP act; H = hIAP block
46: COc1ccc(C2C3=C(CC(C)(C)CC3=O)Nc3c2c(=O)[nH]c(=O)n3Cc2ccccc2)cc1OC (stereo not drawn)
  A: -15; B: -22; C: -47; D: 5; E: 5; F: 1.5; G: 0.87; H: 13

47: O=C(/C=C\Nc1ccc2c(c1)OCO2)c1ccccn1
  A: 0; B: 39; C: 11; D: 8; E: -4; F: 0.89; G: 1; H: -1

48: CCCCn1c(NC(=O)c2ccc(F)cc2)c(C#N)c2nc3ccccc3nc21
  A: .; B: 10; C: -3; D: 20; E: 15; F: 1; G: 1.2; H: -22

49: Cc1ccc(S(=O)(=O)N2CCCC2C(=O)NCCc2nc3ccccc3[nH]2)cc1 (stereo not drawn)
  A: -6; B: -3; C: -3; D: -1; E: 6; F: 1; G: 1.1; H: -5

50: CCOc1ccc(C2C=C(c3ccc(C)cc3)Nc3nnnn32)cc1 (stereo not drawn)
  A: -5; B: 11; C: 17; D: 5; E: 9; F: 0.83; G: 0.95; H: 5

51: O=C(O)CCc1ccc(-c2cccs2)n1CC1CCCO1 (stereo not drawn)
  A: 5; B: 8; C: -5; D: 9; E: 14; F: 1; G: 1; H: -4

52: Fc1ccccc1N1CCN(Cc2nc(-c3ccccc3)no2)CC1
  A: 10; B: 3; C: 6; D: 9; E: 20; F: 0.94; G: 0.95; H: 5

Screening results (PubChem)
